# Tau fil binding: binders of human tau filaments; Potency, µM (doses to about 57.1 µM), without a hit: at the top dose activity change, negative = inhibition; 2% of 71,000 active; AID 596; recombinant tau filaments, thioflavin S fluorescence, 15 h; filaments grown with octadecylsulfate alongside compound;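 further: potency means the concentration at half of the fitted maximal effect; on the % scale 0 is the no-effect control and ±100 the full control effect; actives lower thioflavin S fluorescence by blocking filaments or displacing dye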
# Target sequence (P10636 whole entry, looked up): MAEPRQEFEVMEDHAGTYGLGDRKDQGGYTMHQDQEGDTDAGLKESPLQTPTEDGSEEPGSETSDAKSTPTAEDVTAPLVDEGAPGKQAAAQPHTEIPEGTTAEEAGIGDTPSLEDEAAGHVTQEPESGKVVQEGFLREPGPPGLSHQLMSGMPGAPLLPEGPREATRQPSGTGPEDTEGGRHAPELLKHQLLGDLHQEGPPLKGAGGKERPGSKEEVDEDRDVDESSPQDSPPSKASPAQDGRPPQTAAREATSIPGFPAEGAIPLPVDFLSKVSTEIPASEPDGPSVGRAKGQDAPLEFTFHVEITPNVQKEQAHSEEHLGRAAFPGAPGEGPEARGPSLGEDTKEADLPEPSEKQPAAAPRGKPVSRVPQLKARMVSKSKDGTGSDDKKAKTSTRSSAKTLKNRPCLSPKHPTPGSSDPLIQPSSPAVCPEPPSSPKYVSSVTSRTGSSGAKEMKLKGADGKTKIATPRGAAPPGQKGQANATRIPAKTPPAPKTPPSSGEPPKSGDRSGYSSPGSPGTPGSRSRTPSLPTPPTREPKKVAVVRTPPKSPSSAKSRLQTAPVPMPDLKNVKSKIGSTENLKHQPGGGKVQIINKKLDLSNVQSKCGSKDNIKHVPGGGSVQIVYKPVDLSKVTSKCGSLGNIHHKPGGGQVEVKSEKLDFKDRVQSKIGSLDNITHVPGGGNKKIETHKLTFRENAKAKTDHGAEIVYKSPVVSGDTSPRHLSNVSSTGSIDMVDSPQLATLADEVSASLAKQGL
#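 His-tagged recombinant human tau (exons 2, 3, 10; 1 uM final) fibrillized with 30 uM sodium octadecylsulfate, 15 h at 37 C, in pH 7.4 HEPES buffer with 10 uM thioflavine S and 5 mM DTT. Reduced ThS fluorescence (450/510 nm) marks activity.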
# HBB splicing: hemoglobin beta splicing modulation | HBB splicing reporter cell assay, activation; EGFP reporter with mutant IVS2-654 intron; response scale: normalised to 500 nM splice-correcting PNA | 0.06% of 65,000 active | AID 925 | Potency, µM (doses to about 46.1 µM), for inactives: at the highest dose activation, usual class: activators; further: potency means the concentration at half of the fitted maximal effect; 0% is about no effect
#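 Compounds were applied for 2 days to HeLa EGFP-654 cells, 500/well in Optimem with 2% FCS. The reporter's EGFP is disrupted by mis-splicing of beta-globin intron IVS2-654. Readout: summed well GFP fluorescence from 488 nm laser scanning; reference was 500 nM antisense […] 654 PNA.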
# CRE Fsk mod: modulators of forskolin-stimulated CRE signaling in CHO cells; 2.5% of 71,000 active; Potency, µM (doses to about 38.2 µM), inactives show top-dose activity change, negative = inhibition, actives largely listed as activators; AID 662; CHO CRE-bla reporter (cAMP response element driving beta-lactamase), forskolin EC10, beta-lactamase ratio; active means well fitted activation curve with a large enough effect in the signal ratio, with a control signal flat, not every such curve was filed as active; inconclusive means small, poorly fitted or top-dose-only effect, or effect the other way, or a change in a side signal; the % refers to the signal ratio; further: potency means the concentration at half of the fitted maximal effect; % of control where 0% means no effect
#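 Titrated compounds plus EC10 NKH 477 on CHO CRE-bla cells, 3 h, 37 °C. CCF4, 2 h RT. Ratio 460/530 nm → AC50.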
# ERK AVP block: blocks ERK signaling stimulated by vasopressin; HEK293-V1b, vasopressin-stimulated pERK AlphaScreen; Potency, µM (titrated, usually from 57.5 µM), without a hit: top-dose activity, negative = inhibition, actives largely listed as inhibitors; 0.99% of 72,000 active; AID 995; further: potency means the concentration at half of the fitted maximal effect; on the % scale 0 is the no-effect control and ±100 the full control effect; nearly all actives have a fitted effect of over 55% in size
#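 Overnight-seeded V1b-HEK293 cells in 1% FBS got compound, then vasopressin (25 nM final, 5 min, 37C), then lysis buffer. AlphaScreen detection of phospho-ERK; activity normalized to basal and full-stimulation controls.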
# DNA Pol III inh: blocks replication by bacterial DNA polymerase III holoenzyme; 0.25% of 71,000 active; reconstituted DNA polymerase III holoenzyme replication, biochemical; Potency, µM (series often up to 57.1 µM), for inactives: at the highest dose activity change, negative = inhibition; AID 603; further: potency means the concentration at half of the fitted maximal effect; on the % scale 0 is the no-effect control and ±100 the full control effect
#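 Reconstituted *E. coli* holoenzyme (0.35 nM Pol III, 1 nM beta, 154 nM SSB, 2 nM primase) was preincubated with compound for 15 min at RT. Synthesis on 1.4 nM ssM13Gori ran 35 min, then was stopped with PicoGreen/EDTA and read as dsDNA fluorescence.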
# GFP derepression: epigenetic GFP locus derepression in mouse cells | mouse C127i GFP locus derepression, cytometry, 30 h | Potency, µM (highest dose often 46.1 µM), for inactives: at the highest dose GFP derepression (activation) | 0.09% of 68,000 active | AID 597; further: % of control where 0% means no effect
#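 Locus derepression in mouse mammary C127i cells whose integrated CMV-GFP reporter is normally silent; GFP expression after 30 h compound treatment was quantified by counting fluorescent cells.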
# FLuc inh: firefly luciferase inhibition; P08659; purified firefly luciferase, luminescence, 8 min; Potency, µM (doses to about 57.1 µM), inactives show at the top dose activity change, negative = inhibition, actives largely listed as inhibitors; 2.2% of 72,000 active; AID 411; further: potency means the concentration at half of the fitted maximal effect; on the % scale 0 is the no-effect control and ±100 the full control effect; nearly all actives have a fitted effect of over 40% in size
#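 Compounds were tested as concentration series (qHTS) against purified P. pyralis luciferase with luciferin and 10 uM ATP in 50 mM imidazole pH 7.2, 50 mM KCl, 7 mM MgCl2, 0.01% Tween 20, 0.05% BSA. Luminescence was read after 8 min at ambient temperature.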
# ALOX15 inhib: blocks human 15-lipoxygenase activity; P16050; purified 15hLO-1, xylenol orange hydroperoxide absorbance; Potency, µM (highest dose often 57.1 µM), without a hit: at the top dose activity change, negative = inhibition, actives largely listed as inhibitors; 1.4% of 74,000 active; AID 887; further: potency means the concentration at half of the fitted maximal effect; on the % scale 0 is the no-effect control and ±100 the full control effect; nearly all actives have a fitted effect of over 55% in size
#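 Quantitative HTS in 25 mM Hepes pH 7.5 containing 0.01% Triton X-100: human 15hLO-1 at 40 nM, arachidonic acid at 50 uM, 6 min turnover. Product quantified via ferrous oxidation/xylenol orange, 573:405 nm absorbance ratio.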
# UbGFP stabilizer: ubiquitin-GFP accumulation via proteasome inhibition; 67,000 tested, under 10 active; Potency, µM (series often up to 45.9 µM), without a hit: at the highest dose activation (GFP accumulation), most hits filed as activators; Ubiquitin-GFP reporter cells, proteasome inhibition, GFP fluorescence; response scale: untreated = 0%, 10 µM MG-132 = 100%; active means well fitted activation curve with a large enough effect, not every such curve was filed as active; inconclusive means small, poorly fitted or top-dose-only effect, or another doubt; inactive means no such curve, though single readings can be large or run the other way; further: potency means the concentration at half of the fitted maximal effect
#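 Reporter cells (U2OS, ubiquitin-G76V-GFP fusion) are plated overnight, then treated 4 hr at 37 °C with compound titrations from 46 uM down to 2.9 nM. Activity is scaled against untreated cells and 10 uM MG-132.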
# Active calls of the source: *; ? = inconclusive; · = not tested or not shown; [ ] = another dose, or the depositor's remark. Unless noted, the call rests on the fitted dose curve; in most records, active means well fitted curve in the direction sought with a large enough effect; inconclusive means small, poorly fitted or top-dose-only effect, or another doubt; inactive means no such curve, though single readings can be large; an effect the other way counts as inactive or inconclusive.
SMILES,Tau fil binding,HBB splicing,CRE Fsk mod,ERK AVP block,DNA Pol III inh,GFP derepression,FLuc inh,ALOX15 inhib,UbGFP stabilizer
CSCC[C@H](NC(=O)OC(C)(C)C)C(=O)N1CCC(C(=O)N[C@@H](C)C(=O)O)CC1,2%,-0.1%[57.5 µM],2%,6%,4%,3%,0%,9%,-7%
CSCC[C@H](NC(=O)OC(C)(C)C)C(=O)N1CCC(C(=O)N[C@H](C(=O)O)C(C)C)CC1,7%,-3.0%[57.5 µM],0%,-8%,-7%,-2%,2%,5%,-2%
COCCn1c(=NC(=O)CSC(C)=O)sc2cc(OC)ccc21,2%,-0.5%,?,·,-5%,·,3%,-17%,-1%
O=S(=O)(Nc1cccc(C(F)(F)F)c1)c1cnc[nH]1,13%,-0.5%,6%,12%,-5%,3%,1%,-2%,20%
C=CCn1c(CCNC(=O)c2ccccc2F)nnc1SCC(=O)Nc1nc(C)cs1,46%,10%,-4%,?,-1%,0%,2%,-22%,-6%
CC(C)=CC(=O)Nc1nnc(-c2cccnc2)s1,-1%,·,6%,25%,-6%,-3%,-2%,8%,3%
COc1ccc(C(=O)N2CCC(n3c(C)nc4cc(F)ccc43)CC2)cc1OC,10%,·,?,-30%,-2%,0%,2%,9%,4%
CCOC(=O)N1CCN(c2nc(N(c3ccccc3)c3ccccc3)nc(-n3ccnc3)n2)CC1,-1%,-1.0%,6%,-21%,2%,2%,3%,3%,-3%
Cc1cc(N2CCCC2=O)c(N)cc1N,-9%,0.4%,4%,1%,-3%,-3%,0%,4%,-2%
COc1ccc(OCC(=O)Nc2cccc(C(C)=O)c2)cc1,14%,-6.1%,-2%,8%,-7%,2%,-3%,2%,0%
CN[C@@H](c1ccncc1)[C@@H](NC)c1ccncc1,-1%[11.4 µM],0.3%[9.22 µM],?,6%[11.5 µM],12%[11.4 µM],0%[9.22 µM],1%[11.4 µM],6%[11.4 µM],-12%[9.17 µM]
COc1ccc(S(=O)(=O)N2CCC(C(=O)N3CCCCC3)CC2)cc1OC,3%,·,18%,12%,2%,0%,2%,1%,2%
CCOC(=O)C(NC(=O)CC)(Nc1sc2c(c1C(=O)OC)CCN(C)C2)C(F)(F)F (stereo not given),14%,-1.4%,?,8%,-3%,-3%,1%,?,11%
Cc1cc(C)n(-c2nc(-c3cccc(Cl)c3)cs2)n1,2%[11.4 µM],-3.9%[0.0738 µM],?,70%[activator],-1%[11.4 µM],-2%,-24%,-2%[11.4 µM],-12%[9.17 µM]
COc1ccc(C(=O)c2no[n+]([O-])c2C(=O)c2ccc(OC)cc2)cc1,-14%,1.1%[57.5 µM],?,?,2%,17%,-3%,0%,-7%
CCC(C)(C)n1nnnc1CN1CCN(c2nc3cc(OC)ccc3cc2C#N)CC1,-5%,-0.4%,?,-18%,-10%,-1%,1%,-9%,-5%
CCC(C)(C)n1nnnc1C(c1cccs1)N1CCc2ccccc21 (stereo not given),-4%,·,-7%,0%,-3%,1%,-1%,0%,-1%
O=C(O)C1CCCN1C(=O)Nc1ccc(F)cc1 (stereo not given),2%,-2.5%,-7%,3%,-5%,-1%,3%,2%,1%
CN(Cc1nc(-c2ccccn2)no1)S(=O)(=O)c1ccc(Br)cc1,-8%,-0.8%,6%,-20%,-9%,6%,0%,-3%,-6%
O=C(NCCCn1ccnc1)c1ccc2c(c1)OCCO2,0%,·,2%,0%,-3%,-1%,-2%,?,2%

# Rewritten as tab-separated lines: part of the list above.
mol	Tau fil binding	HBB splicing	CRE Fsk mod	ERK AVP block	DNA Pol III inh	GFP derepression	FLuc inh	ALOX15 inhib	UbGFP stabilizer
CCOC(=O)N1CCN(c2nc(N(c3ccccc3)c3ccccc3)nc(-n3ccnc3)n2)CC1	-1%	-1.0%	6%	-21%	2%	2%	3%	3%	-3%
COc1ccc(C(=O)c2no[n+]([O-])c2C(=O)c2ccc(OC)cc2)cc1	-14%	1.1%[57.5 µM]	?	?	2%	17%	-3%	0%	-7%
COCCn1c(=NC(=O)CSC(C)=O)sc2cc(OC)ccc21	2%	-0.5%	?	·	-5%	·	3%	-17%	-1%
CSCC[C@H](NC(=O)OC(C)(C)C)C(=O)N1CCC(C(=O)N[C@H](C(=O)O)C(C)C)CC1	7%	-3.0%[57.5 µM]	0%	-8%	-7%	-2%	2%	5%	-2%
O=C(NCCCn1ccnc1)c1ccc2c(c1)OCCO2	0%	·	2%	0%	-3%	-1%	-2%	?	2%

# Retrieved one by one from the entries so far, three records:
SMILES,Tau fil binding,HBB splicing,CRE Fsk mod,ERK AVP block,DNA Pol III inh,GFP derepression,FLuc inh,ALOX15 inhib,UbGFP stabilizer
COCCn1c(=NC(=O)CSC(C)=O)sc2cc(OC)ccc21,2%,-0.5%,?,·,-5%,·,3%,-17%,-1%
CSCC[C@H](NC(=O)OC(C)(C)C)C(=O)N1CCC(C(=O)N[C@H](C(=O)O)C(C)C)CC1,7%,-3.0%[57.5 µM],0%,-8%,-7%,-2%,2%,5%,-2%
COc1ccc(OCC(=O)Nc2cccc(C(C)=O)c2)cc1,14%,-6.1%,-2%,8%,-7%,2%,-3%,2%,0%

# The listing continues.
SMILES,Tau fil binding,HBB splicing,CRE Fsk mod,ERK AVP block,DNA Pol III inh,GFP derepression,FLuc inh,ALOX15 inhib,UbGFP stabilizer
Cc1cc(C)c(NC(=O)C2CCCN2CCO)c(C)c1 (stereo not given),-12%,·,9%,0%,-3%,-1%,0%,5%,4%
CCCc1nc(NCc2ccncc2)c2nnn(Cc3ccccc3F)c2n1,-6%,-2.1%,9%,?,-2%,-1%,1%,-27%,2%
CCOc1ccc(C=NC23CN4CN(CN(C4)C2)C3)cc1,10%,-0.3%[57.5 µM],4%,10%,-1%,-2%,4%,12%,-2%
O=C(CSc1ccc2c(c1)OCCO2)Nc1ccc(Cl)cn1,-12%,9.6%,?,-17%,5%,0%,1%,-6%,1%
COc1ccc([C@@H](C)c2cc3c(cc2O)OCO3)cc1,-5%[11.4 µM],-0.6%[9.22 µM],1%[7.6 µM],12%[11.5 µM],-2%[11.4 µM],2%[9.22 µM],3%[11.4 µM],3.2µM*,-2%[9.17 µM]
CC(C)(C)c1cc(NC(=O)C2CCCO2)no1 (stereo not given),-6%,-0.9%,2%,3%,-1%,0%,-11%,3%,12%
c1ccc(N(c2ccccc2)c2nc(N3CCCC3)nc(-n3ccnc3)n2)cc1,19%,-0.3%,11%,-11%,5%,0%,2%,17%,2%
CCOC(=O)Cn1c(C)c(C#N)c2ccccc21,-13%,-2.4%,?,4%,2%,-2%,-2%,1%,-1%
O=C(NCc1cccs1)c1cccc(S(=O)(=O)N2CCCCC2)c1,7%,-1.4%,?,-4%,-5%,-1%,-38%,-2%,4%
O=C(CSc1ncn(-c2ccccc2)n1)Nc1ccc(Br)cn1,9%,1.9%,?,-17%,-6%,2%,2%,20µM*,1%
CN(Cc1nc(-c2ccccn2)no1)S(=O)(=O)c1ccc(Cl)cc1,-1%,0.5%,-1%,-14%,-1%,-2%,0%,11%,1%
CC1CN(C(c2cccs2)c2sc3ncnn3c2O)CC(C)O1 (stereo not given),-8%,-0.7%,2%,·,-7%,·,0%,6%,-1%
Cc1ccc(Cn2c(=O)n(Cc3ccco3)c(=O)c3ccccc32)cc1,84%,3.4%,?,-13%,-5%,1%,-3%,-5%,-4%
Cc1ccccc1-c1cncnc1NCCN1CCOCC1,1%,2.7%,?,3%,-5%,0%[9.22 µM],0%[2.29 µM],-16%,7%
CN(Cc1ccccc1)C(=O)c1ccc2c(c1)OCO2,-5%,·,-2%,-15%,-3%,-2%,2%,-3%,1%
O=S(=O)(NCC(c1ccccc1)N1CCNCC1)c1ccc(Cl)cc1 (stereo not given),?,-0.5%[0.0738 µM],-25%[7.6 µM],-2%,-1%[11.4 µM],4%,1%,-12%[11.4 µM],-3%[9.17 µM]
O=C(CCc1ccc(CCC(=O)c2cccs2)s1)c1cccs1,10%,4.3%,?,176%[activator],-6%,-1%,-3%,-15%,9%
Cc1cc(C(F)(F)F)nc(Nc2nc(C)c3ccccc3n2)n1,7%,0.0%,2%,-12%,-2%,2%,0%,8%,9%
CCOC(=O)Cn1c(C)nc2ccccc21,7%,-2.2%,3%,7%,-1%,0%,-4%,7%,-7%
c1ccc(C(Cc2nc(-c3ccccn3)no2)c2ccccc2)cc1,16%,-2.3%,?,6%,0%,-2%,-2%,1%,12%
CCOC(=O)Cn1c2c(c(=N)c3ccccc31)CCC2,10%,-0.3%,6%,1%,-2%,2%,-4%,-2%,0%

# Source: PubChem (National Center for Advancing Translational Sciences (NCATS))

# Only part of the results is shown, so the mix of outcomes need not match the whole.
